From PubChem
UCH37 DUB inh = human UCH37 deubiquitinating enzyme inhibition. Q9Y5K5. purified proteasome/UCH37, Ub-AMC cleavage fluorescence. inhibition, % (test concentration not listed). 330,000 tested, 0.33% active. AID 588478;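 active means mean of two replicates above 20%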;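 further: 0% = compound-free wells with enzyme and 100% = wells lacking proteasome; stock transfer was 100 nL into about 20 µL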
Target sequence (Q9Y5K5 whole entry, looked up): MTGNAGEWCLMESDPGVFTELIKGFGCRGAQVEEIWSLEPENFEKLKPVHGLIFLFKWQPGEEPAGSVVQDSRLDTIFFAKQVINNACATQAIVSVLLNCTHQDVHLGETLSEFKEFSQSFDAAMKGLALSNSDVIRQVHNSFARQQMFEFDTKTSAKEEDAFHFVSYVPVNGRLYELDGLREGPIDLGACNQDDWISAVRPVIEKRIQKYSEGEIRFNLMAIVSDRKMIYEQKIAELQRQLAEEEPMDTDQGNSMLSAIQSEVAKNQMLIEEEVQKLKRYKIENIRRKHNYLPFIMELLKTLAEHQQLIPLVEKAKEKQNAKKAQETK
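system = Proteasome-associated human UCH37 deubiquitinase | amount = 0.15 nM proteasome as dispensed | medium = pH 7.4 Tris-HCl (50 mM) with ovalbumin, ATP-MgCl2, DTT | incubation = 30 min preincubation with enzyme, 25 min cleavage at room temperature | detection = AMC fluorescence 355/460 nm | read-out basis = percent inhibition | controls = no-proteasome and no-compound wells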
B2AR ag = agonists of human beta-2 adrenergic receptor inducing internalization | 340,000 tested, 0.43% active | Am2.2-beta2AR cells, FAP receptor internalization, flow cytometry; reference of the scale not given here | response, % (no concentration beside the values);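 active means response above a set limit, near 3 SD of response in nonfluorescent compounds, cut at about 42% in these data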;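 further: stock transfer was 100 nL into about 11 µL; a reference agonist was the positive control; negative values mostly stem from fluorescent compounds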
Target sequence (P07550 whole entry, looked up): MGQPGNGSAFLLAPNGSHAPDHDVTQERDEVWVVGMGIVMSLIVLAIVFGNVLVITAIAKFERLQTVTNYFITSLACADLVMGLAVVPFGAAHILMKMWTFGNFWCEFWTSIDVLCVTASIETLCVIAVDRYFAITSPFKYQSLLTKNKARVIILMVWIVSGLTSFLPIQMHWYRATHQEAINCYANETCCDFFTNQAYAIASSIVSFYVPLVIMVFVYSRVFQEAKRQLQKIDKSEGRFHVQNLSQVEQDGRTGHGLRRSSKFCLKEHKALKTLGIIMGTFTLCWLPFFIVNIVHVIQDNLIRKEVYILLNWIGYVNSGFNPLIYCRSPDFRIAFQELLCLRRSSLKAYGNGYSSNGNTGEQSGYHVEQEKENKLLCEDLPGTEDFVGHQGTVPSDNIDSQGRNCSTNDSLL
An asterisk follows results filed as active.

How did NS(=O)(=O)c1ccc(N2N=C(c3ccccc3)CC2c2cccc(Cl)c2)cc1 (stereo not given) do in these assays?
UCH37 DUB inh: inactive; B2AR ag: 0

How did Cc1cccc(N=C2CCCC2C(=O)Nc2cccc(C)c2C)c1C (stereo not given) do in these assays?
UCH37 DUB inh: -24; B2AR ag: 2

Results for CCc1c(Nc2ccccc2Cl)nc(N)[nH]c1=O ?
UCH37 DUB inh: 0.0; B2AR ag: 2

What do the screens show for `CCOc1ccccc1-c1c2cc(O)c(=O)cc-2oc2cc(O)c(O)cc12`?
UCH37 DUB inh: 16; B2AR ag: -247

How did CC(=O)Nc1ccc(Sc2ccc([N+](=O)[O-])o2)cc1 do in these assays?
UCH37 DUB inh: 28*; B2AR ag: 38

Results for O=C(Nc1ccc2c(c1)nc1n2CCN(C2CCCCC2)C1)c1ccco1 ?
UCH37 DUB inh: -1.5; B2AR ag: 36

Results for COc1cc(S(=O)(=O)NCC2(N3CCCCC3)CCCCC2)ccc1NC(C)=O ?
UCH37 DUB inh: 1.8; B2AR ag: 1

What do the screens show for `COC(=O)[C@@]1(Cc2ccccc2)[C@H]2C(=O)N(Cc3ccccc3)C(=O)[C@H]2[C@H]2CN=C(SCc3ccccc3)N21`?
UCH37 DUB inh: -0.5; B2AR ag: 7

How did Cc1noc(C)c1S(=O)(=O)N(CC(=O)Nc1ccc2c(c1)OCO2)c1ccc(C(C)C)cc1 do in these assays?
UCH37 DUB inh: 5.2; B2AR ag: 2

What do the screens show for `CC(=O)c1ccc(OCCCC(=O)Nc2cc(S(=O)(=O)N3CCCCC3)ccc2C)cc1`?
UCH37 DUB inh: 4.1; B2AR ag: 3

How did CC(=O)Oc1ccc2ccc3ccc(C(C)=O)cc3c2c1 do in these assays?
UCH37 DUB inh: -31; B2AR ag: 9

How did COc1ccc(S(=O)(=O)N2CCN(C(=O)CCCN3C(=O)NC4(CCCC4)C3=O)CC2)cc1 do in these assays?
UCH37 DUB inh: 3.4; B2AR ag: 1

What do the screens show for `O=C(CN1CCCCCC1)Nc1nc2ccccc2s1`?
UCH37 DUB inh: 3.7; B2AR ag: -4

What do the screens show for `O=C(C[C@H]1C[C@H](C(=O)N2CCOCC2)[C@@]2(CCC3CCCC3)c3[nH]c4cc(-c5ccco5)ccc4c3CCN2C1=O)NCC12CC3CC(CC(C3)C1)C2`?
UCH37 DUB inh: -12; B2AR ag: 0

What do the screens show for `COC(=O)[C@@]1(C)[C@H]2C(=O)N(Cc3ccccc3)C(=O)[C@H]2[C@H]2CN=C(SCC3CC3)N21`?
UCH37 DUB inh: 0.1; B2AR ag: 0

Results for CC[C@]12c3[nH]c4cc(-c5ccco5)ccc4c3CCN1C(=O)[C@@H](CC(=O)NC/C=C(\C)CCC=C(C)C)C[C@@H]2C(=O)N1CCN(C(=O)c2ccco2)CC1 ?
UCH37 DUB inh: -11; B2AR ag: 0

What do the screens show for `COc1ccc2c(CC(=O)NNC(=O)c3cccs3)coc2c1`?
UCH37 DUB inh: -2.2; B2AR ag: -8

Results for c1ccc(-n2nnnc2-c2cccc3ccccc23)cc1 ?
UCH37 DUB inh: 5.5; B2AR ag: 8

How did Cc1cccc(NC(=O)CSc2nnc(-c3ccco3)c(-c3ccco3)n2)c1 do in these assays?
UCH37 DUB inh: 13; B2AR ag: -11

Results for COc1cc2oc(=O)cc(-c3ccc(-c4ccc(O)cc4)cc3)c2c(OC)c1OC ?
UCH37 DUB inh: -9.8; B2AR ag: 7

What do the screens show for `C[C@H]1NS(=O)(=O)c2ccc(Br)cc2O[C@H]1c1ccccc1`?
UCH37 DUB inh: 5.1; B2AR ag: -6

Results for COC(=O)[C@]1(C)N[C@H](CN(C)S(=O)(=O)c2ccccc2)[C@@H]2C(=O)N(C)C(=O)[C@@H]21 ?
UCH37 DUB inh: 5.6; B2AR ag: -1

How did CN(C(=O)c1cccc(NC(=O)Cc2cccc(NC(=O)C3CCCN(C(=O)C4CC4)C3)c2)c1)C1CCC1 (stereo not given) do in these assays?
UCH37 DUB inh: -2.0; B2AR ag: -8

What do the screens show for `CSc1nc2nc(C)c(CCC(=O)OCC(=O)Nc3ccc(F)cc3)c(C)n2n1`?
UCH37 DUB inh: 3.9; B2AR ag: 5

How did CCOC(=O)C1=C(C)N(C[C@@H]2CC[C@@H](Cc3ccc(-c4ccccc4)cc3)O2)C(=O)NC1c1cccc2ccccc12 (stereo not given in full) do in these assays?
UCH37 DUB inh: -0.5; B2AR ag: 2

How did CC12CCC(=O)C=C1CCC1C2C(O)CC2(C)C1CCC2(O)C(=O)COC(=O)COCC(=O)O (stereo not given) do in these assays?
UCH37 DUB inh: 0.8; B2AR ag: -10

What do the screens show for `O=C(c1cccc(S(=O)(=O)N2CCCC2)c1)N1CCN(S(=O)(=O)c2cccc(Cl)c2)CC1`?
UCH37 DUB inh: 5.2; B2AR ag: 5

What do the screens show for `N#Cc1ccccc1S(=O)(=O)N1CCC(C(=O)Nc2cccc(C(=O)NC3CC3)c2)CC1`?
UCH37 DUB inh: 1.2; B2AR ag: 4

How did C=C1[C@@H](O)[C@H](Cc2ccccc2)N(Cc2ccccc2Br)S1(=O)=O do in these assays?
UCH37 DUB inh: 0.8; B2AR ag: 11

Results for Cc1ccc(-n2nnnc2SCC(=O)NCC2(N3CCOCC3)CCCCC2)c(C)c1 ?
UCH37 DUB inh: 0.6; B2AR ag: 19

What do the screens show for `COc1ccc(-c2c3c([nH]c(=S)c2C#N)CCC3)cc1`?
UCH37 DUB inh: 2.8; B2AR ag: 9

How did Cc1ccc(N/C(N)=N/c2nc(CSc3ccc(C)cc3)cc(=O)[nH]2)cc1 do in these assays?
UCH37 DUB inh: -1.3; B2AR ag: -1

Results for COc1ccc(C(CNC(=O)C(C)Sc2ccccc2)N2CCOCC2)cc1 (stereo not given) ?
UCH37 DUB inh: 1.3; B2AR ag: -9

What do the screens show for `COc1cc(/C=C2\SC(=O)N(c3cccc(Cl)c3)C2=O)cc([N+](=O)[O-])c1O`?
UCH37 DUB inh: 6.7; B2AR ag: 7

How did Cc1cc(C)cc(NC(=O)COC(=O)Cn2cnc3c2c(=O)n(C)c(=O)n3C)c1 do in these assays?
UCH37 DUB inh: 6.2; B2AR ag: 0

What do the screens show for `CCN(C[C@H]1N[C@@](CC)(C(=O)OC)[C@H]2C(=O)N(Cc3ccccc3)C(=O)[C@@H]12)C(=O)c1ccccc1`?
UCH37 DUB inh: 1.8; B2AR ag: 9

What do the screens show for `O=[N+]([O-])c1ccc(C=NN=Cc2ccc([N+](=O)[O-])cc2)cc1`?
UCH37 DUB inh: 2.7; B2AR ag: 0

Results for CC(Oc1ccc(Cl)cc1Cl)C(=O)NC(Cc1ccccc1)C(=O)O (stereo not given) ?
UCH37 DUB inh: 2.6; B2AR ag: -14

What do the screens show for `COc1ccc(-c2cn3c(C)c(C(=O)N4CCN(c5ccccc5)CC4)sc3n2)cc1`?
UCH37 DUB inh: 4.9; B2AR ag: 13

What do the screens show for `COc1ccc(S(=O)(=O)N2CCN(CC(=O)N3c4ccccc4CC3C)CC2)cc1OC` (stereo not given)?
UCH37 DUB inh: 3.4; B2AR ag: -4

How did c1ccc2c(c1)ccn2CCCN1CCCCC1 do in these assays?
UCH37 DUB inh: 1.4; B2AR ag: -6

How did COc1ccc(/C=C/C(=O)N(C)CC(=O)Nc2cccc(F)c2)cc1S(=O)(=O)N1CCCCC1 do in these assays?
UCH37 DUB inh: 4.0; B2AR ag: 1

What do the screens show for `CCN(C[C@H]1N[C@@](Cc2ccccc2)(C(=O)OC)[C@H]2C(=O)N(C)C(=O)[C@@H]12)C(C)=O`?
UCH37 DUB inh: 1.5; B2AR ag: -12

What do the screens show for `CCC(NC(=O)CC[C@H]1O[C@@H](n2cc(C)c(=O)[nH]c2=O)C[C@@H]1O)c1ccccc1` (stereo not given in full)?
UCH37 DUB inh: 0.7; B2AR ag: 5

Results for c1ccc(-c2ccc(-c3ccccc3)[nH]2)cc1 ?
UCH37 DUB inh: -65; B2AR ag: -3

Results for CC[C@]1(C(=O)OC)[C@H]2C(=O)N(Cc3ccccc3)C(=O)[C@H]2[C@H]2CN=C(SCC(=O)c3ccccc3)N21 ?
UCH37 DUB inh: 4.5; B2AR ag: -3

How did CN(C(=O)c1cccc(NC(=O)Cc2ccc(NC(=O)C3CCN(C(=O)C4CCC4)CC3)cc2)c1)C1CCCC1 do in these assays?
UCH37 DUB inh: 1.2; B2AR ag: 6

How did COc1cc(NC(=O)CN2C(=O)C(=O)N(CC(C)C)C2=O)cc(OC)c1 do in these assays?
UCH37 DUB inh: -0.7; B2AR ag: 2

How did O=C(CNC(=O)c1ccccc1Br)NNC(=O)c1cccs1 do in these assays?
UCH37 DUB inh: 5.2; B2AR ag: -3

Results for CN1CCC(N(C)C(=O)c2ccc(Cl)c(S(=O)(=O)Nc3ccc(Cl)cc3)c2)CC1 ?
UCH37 DUB inh: 0.6; B2AR ag: -14

How did CC1(C)CSC(C)(C)C(=O)N1 do in these assays?
UCH37 DUB inh: 2.3; B2AR ag: -5

Results for O=C(NCCNC(=O)Nc1ccc(Cl)cc1)Nc1ccc(Cl)cc1 ?
UCH37 DUB inh: 0.8; B2AR ag: -189

What do the screens show for `CCCc1cc(=O)[nH]c(SCC(=O)NCC2COc3ccccc3O2)n1` (stereo not given)?
UCH37 DUB inh: 1.7; B2AR ag: 7

Results for O=S(=O)(Nc1cccnc1)c1cccnc1 ?
UCH37 DUB inh: 1.9; B2AR ag: 2

How did COc1ccc([C@@H]2CC=C(C(=O)O)[C@H](c3ccc(C)cc3)N2S(=O)(=O)c2ccccc2C)cc1 do in these assays?
UCH37 DUB inh: 3.7; B2AR ag: 1

Results for COc1ccccc1C1/C(=C(/O)c2cnn(-c3ccccc3)c2C)C(=O)C(=O)N1CCN(C)C (stereo not given) ?
UCH37 DUB inh: 7.1; B2AR ag: 0

How did CN(C)N1C(=O)C2C3C=CC(O3)C2C1=O (stereo not given) do in these assays?
UCH37 DUB inh: 4.3; B2AR ag: -4

Results for CC(Oc1ccccc1F)C(=O)NNC(=O)Cc1ccc(S(=O)(=O)N2CCOCC2)s1 (stereo not given) ?
UCH37 DUB inh: -1.3; B2AR ag: -5

How did O=[N+]([O-])c1cc(F)cc(F)c1Nc1cc(F)cc(F)c1 do in these assays?
UCH37 DUB inh: 3.4; B2AR ag: 5

What do the screens show for `O=[N+]([O-])c1ccc(NS(=O)(=O)c2ccccc2)c(Cl)c1`?
UCH37 DUB inh: 9.6; B2AR ag: 10

Among those listed so far, these have a cyano group:
What do the screens show for `N#Cc1ccccc1S(=O)(=O)N1CCC(C(=O)Nc2cccc(C(=O)NC3CC3)c2)CC1`?
UCH37 DUB inh: 1.2; B2AR ag: 4

What do the screens show for `COc1ccc(-c2c3c([nH]c(=S)c2C#N)CCC3)cc1`?
UCH37 DUB inh: 2.8; B2AR ag: 9

Following part:
What do the screens show for `O=C1NC(=O)N(c2ccc(Cl)cc2)C(=O)/C1=C/c1ccc2c(c1)CCN2Cc1ccccc1Cl`?
UCH37 DUB inh: 0.8; B2AR ag: -1

How did NC(=N\N=CCc1ccccc1)/C(N)=N/N=CCc1ccccc1 do in these assays?
UCH37 DUB inh: 2.1; B2AR ag: -28

How did Cc1ccc(S(=O)(=O)N2CCC[C@H]2C(=O)Oc2ccccc2)cc1 do in these assays?
UCH37 DUB inh: 0.8; B2AR ag: 1

What do the screens show for `Cc1ccc(NC(=O)CCC(=O)N2CCC(c3ccccc3)=N2)cc1S(=O)(=O)N1CCCCC1`?
UCH37 DUB inh: -2.4; B2AR ag: 3

Results for CC1CCc2c(sc(NC(=O)c3noc4c3CCCC4)c2C(N)=O)C1 (stereo not given) ?
UCH37 DUB inh: -36; B2AR ag: -24

Results for O=C(c1ccccn1)N1CC=C(c2ccccc2)CC1 ?
UCH37 DUB inh: 4.3; B2AR ag: -6

A stretch taken from the entries so far, for reference:
How did CC1(C)CSC(C)(C)C(=O)N1 do in these assays?
UCH37 DUB inh: 2.3; B2AR ag: -5

Results for O=C(NCCNC(=O)Nc1ccc(Cl)cc1)Nc1ccc(Cl)cc1 ?
UCH37 DUB inh: 0.8; B2AR ag: -189

What do the screens show for `CCCc1cc(=O)[nH]c(SCC(=O)NCC2COc3ccccc3O2)n1` (stereo not given)?
UCH37 DUB inh: 1.7; B2AR ag: 7

Results for O=S(=O)(Nc1cccnc1)c1cccnc1 ?
UCH37 DUB inh: 1.9; B2AR ag: 2

How did COc1ccc([C@@H]2CC=C(C(=O)O)[C@H](c3ccc(C)cc3)N2S(=O)(=O)c2ccccc2C)cc1 do in these assays?
UCH37 DUB inh: 3.7; B2AR ag: 1

This is a subset. The share of hits here may be higher or lower than overall.
